Bioassay records from PubChem.
Cruzain inh Det = qHTS Assay for Promiscuous and Specific Inhibitors of Cruzain (with detergent) | purified cruzain, Z-FR-AMC fluorescence, 0.01% Triton | actives 0.43% (n = 200,000) | Potency, µM, inactives show max response, negative = inhibition, hits mostly inhibitors;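 also: plate controls were neutral wells for no effect and buffer without enzyme for full effect; nearly all actives have a fitted effect of over 40% in size; top concentration of the series not given in the record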
Target sequence (P25779 123-467 limits assumed): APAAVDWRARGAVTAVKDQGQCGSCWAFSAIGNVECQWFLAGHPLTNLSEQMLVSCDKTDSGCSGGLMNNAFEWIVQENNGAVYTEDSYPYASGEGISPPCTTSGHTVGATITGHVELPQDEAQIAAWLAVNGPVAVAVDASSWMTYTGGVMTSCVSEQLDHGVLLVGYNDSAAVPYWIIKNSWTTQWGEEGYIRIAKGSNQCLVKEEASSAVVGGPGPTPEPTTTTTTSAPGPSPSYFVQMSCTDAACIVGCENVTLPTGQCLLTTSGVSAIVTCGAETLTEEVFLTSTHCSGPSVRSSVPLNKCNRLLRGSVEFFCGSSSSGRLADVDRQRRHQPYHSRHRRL
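In this qHTS format, compounds are incubated with 1.5 nM cruzain for 15 min at room temperature before 2 uM Z-FR-AMC is added. Release of AMC is followed at 360/450 nm, and progress is taken as the 60 s fluorescence difference.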
Lassa entry inh = qHTS for Inhibitors of binding or entry into cells for Lassa Virus. Lassa virus pseudotype entry inhibition, cell reporter; control for the full effect not named in the record. Potency, µM (highest dose often 37.9 µM), inactives show at the highest dose activity change, negative = inhibition, actives largely listed as inhibitors. AID 540256, 2011. actives 1.2% (n = 300,000); active means well fitted inhibition curve with a large enough effect; inconclusive means small, poorly fitted or top-dose-only effect, or effect the other way; inactive means flat fitted curve, though single readings scatter; tested in HEK293 cells; also: % is scaled to controls: 0 for no effect and ±100 for the full control effect; nearly all actives have a fitted effect of over 50% in size; luciferase read-out
RE007 growth inh = qHTS Assay for Inhibitors of the HIV-1 protein Vpr; S. pombe RE007 Vpr strain, BacTiter-Glo ATP luminescence, 24 h; control for the full effect not named in the record; Potency, µM (series often up to 92.2 µM), without a hit: at the top dose activity change, negative = less growth; actives 0.21% (n = 360,000); AID 651644, 2012; active = well fitted falling curve with a large enough effect; inconclusive = small, poorly fitted or top-dose-only effect; inactive = no such curve, though single readings can be large or run the other way;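 also: % is scaled to controls: 0 for no effect and ±100 for the full control effect; nearly all actives have a fitted effect of over 50% in size; the assay follows cell death caused by Vpr and the record does not say whether a fall means rescue or toxicity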
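Fission yeast strain RE007, carrying one chromosomally integrated HIV-1 vpr copy, was seeded at OD 0.01 in PMG+AL medium with 23 nL pinned compound. After 24 h at 30 °C and 99% humidity, viability was read by BacTiter-Glo luminescence.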
NS1 function inh = qHTS Assay for Inhibitors of Influenza NS1 Protein Function | S. cerevisiae slowed by influenza A NS1, growth recovery by OD600 | AID 2326, 2010 | Potency, µM (series often up to 46.1 µM), inactives show at the top dose activity, positive = more growth | actives 0.4% (n = 270,000); active means well fitted rising curve with a large enough effect; inconclusive means small, poorly fitted or top-dose-only effect; inactive means no such curve, though single readings can be large or run the other way; also: nearly all actives have a fitted effect of over 50% in size
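S. cerevisiae expressing influenza A NS1, grown in glucose, washed, then diluted 1:100 into pH 6.0 -URA galactose medium with 23 nl compound. Growth recovery read as OD600; NS1-free strain serves as control.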
2A StopGo = High Throughput Screening for Foot and Mouth Disease Virus Antivirals; human cells with a luciferase reporter of 2A StopGo recoding; control for the full effect not named in the record; Potency, µM (doses to about 57.9 µM), without a hit: at the top dose signal change, negative = less light; actives 1.2% (n = 410,000); AID 1159524, 2015; active = well fitted falling curve with a large enough effect; inconclusive = small, poorly fitted or top-dose-only effect; inactive = no such curve, though single readings can be large or run the other way; tested in HEK293T cells; also: % is scaled to controls: 0 for no effect and ±100 for the full control effect; nearly all actives have a fitted effect of over 45% in size; luciferase light after 4 h
MARV entry inh = qHTS for inhibitors of binding or entry into cells for Marburg Virus; Marburg virus pseudotyped entry inhibition, cell reporter; control for the full effect not named in the record; about a third of the inactives were read at about 46 µM; Potency, µM (titrated, usually from 37.8 µM), for inactives: top-dose activity change, negative = inhibition, actives largely listed as inhibitors; actives 1.8% (n = 300,000); AID 540276, 2011; active = well fitted inhibition curve with a large enough effect; inconclusive = small, poorly fitted or top-dose-only effect, or effect the other way; inactive = flat fitted curve, though single readings scatter; tested in HEK293 cells; about a fifth of its hits are not listed in these tables; also: % is scaled to controls: 0 for no effect and ±100 for the full control effect; luciferase read-out
SARS PLP yeast = qHTS of Yeast-based Assay for SARS-CoV PLP | S. cerevisiae expressing SARS-CoV PLpro, growth rescue; control for the full effect not named in the record | Potency, µM (series often up to 32.9 µM), inactives show at the highest dose activity, positive = growth rescue | actives 0.19% (n = 330,000); active means well fitted rising curve with a large enough effect; inconclusive means small, poorly fitted or top-dose-only effect; inactive means no such curve, though single readings can be large or run the other way; also: 0% is about no effect; nearly all actives have a fitted effect of over 55% in size; growth read by luminescence after 48 h
Cruzain noTriton = qHTS Assay for Promiscuous and Specific Inhibitors of Cruzain (without detergent) | Cruzipain (Trypanosoma cruzi), P25779 | purified cruzain, Z-FR-AMC fluorescence, no detergent | Potency, µM, without a hit: max response, negative = inhibition, hits mostly inhibitors | actives 2.3% (n = 200,000);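 also: plate controls were enzyme without inhibitor for no effect and buffer without enzyme for full effect; nearly all actives have a fitted effect of over 40% in size; top concentration of the series not given in the record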
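Purified cruzain at 1.5 nM, pre-incubated 15 min with compound at room temperature in 100 mM sodium acetate pH 5.5, 5 mM DTT, 0.00005% Triton X-100. Reaction started with 2 uM Z-FR-AMC; AMC fluorescence increase over 60 s gives rate.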
The depositor's hits bear a star; ? = inconclusive; · = no result given; [ ] = remark or other dose. Unless noted, calls follow the shape of the dose curve; as a rule, active = well fitted curve in the direction sought with a large enough effect; inconclusive = small, poorly fitted or top-dose-only effect, or another doubt; inactive = no such curve, though single readings can be large; an effect the other way counts as inactive or inconclusive. Potency is read from the fitted curve at half-maximal effect.

Order of values: SARS PLP yeast, MARV entry inh, NS1 function inh, Cruzain noTriton, 2A StopGo, RE007 growth inh, Cruzain inh Det, Lassa entry inh
CCOc1cc(NC(=S)NCC2CCCO2)c(OCC)cc1NC(=O)c1ccc(C)cc1 (stereo not drawn)
→ 29%, -1%, 16%, -4%, -7%, 0%, -5.4%, -3%
COc1ccc(CCNC(=O)C(=O)NCC2OCCN2S(=O)(=O)c2ccccc2)cc1 (stereo not drawn)
→ 0%, ·, 3%, ·, -19%, -17%, ·, ·
O=C1C2CC=CCC2C(=O)N1CC1CCCO1 (stereo not drawn)
→ ?, ?, -1%, -9%, -2%, -7%, 3.5%, 15%
O=C(NC1CC1)c1ccc2snnc2c1
→ 1%, ?, 3%, ·, -10%, -13%, ·, 5%[46.1 µM]
Cc1nnc(SCC(=O)NC(=O)NC2CCCC2)n1N
→ 21%, 5%, -6%, -9%, -2%, -2%, -1.7%, 0%
Cc1ccc(C(=O)OCC(=O)Nc2sc3c(c2C#N)CCC3)cc1
→ 0%, 18%, 8%, 20µM*, -15%, 4%, -0.5%, 6%
O=C(NNC(=O)c1cccc(-n2cccc2)c1)c1ccc(F)cc1
→ -4%, 0%, ·, ·, -3%, 3%, ·, 3%
O=C(CSc1nnc(-c2cccs2)o1)Oc1ccccc1Cl
→ ·, ?, ·, -5%, -12%, ·, -1.9%, -2%[46.1 µM]
Cn1c2ccc(F)cc2c2ncn(Cc3ccccn3)c(=O)c21
→ 0%, -13%, -8%, ·, -2%, 14%, ·, 18%
CCCCn1c(N)c(C(=O)NCCN2CCOCC2)c2nc3ccccc3nc21
→ 0%, ?, -15%, -10%, ?, -10%, -5.9%, -34%
CCOc1ccc(-c2cc(-c3nc(-c4ccc(C)cc4)no3)[nH]n2)cc1
→ ·, ·, ·, 1%, -7%, ·, 0.5%, 24%[46.1 µM]
Cc1ccc2c(c1)N(C(=O)CCC(=O)NCc1cccc(Cl)c1)CC(C)O2 (stereo not drawn)
→ -1%, ·, -12%, ·, -22%, -1%, ·, ·
Cc1ccc(Cn2ccn(Cc3ccccc3F)c(=O)c2=O)cc1
→ ·, ·, ·, ?, 10%, ·, -1.4%, -24%[46.1 µM]
COc1cc(C)c(C(C)C)cc1S(=O)(=O)N1CCN(C)CC1
→ 1%, -4%, 0%, 11%, 33%[activator], -9%, 6.6%, -16%
S=c1[nH]nc(CN2CCCC2)n1Cc1ccccc1
→ -2%, ?, ·, ·, -6%, -2%, ·, 13%
Sc1nnc(-c2ccc(Cl)cc2)n1Cc1ccccc1
→ 7%, ?, ·, ·, 10%, 2%, ·, 5%
O=C(Cc1ccc(S(=O)(=O)N2CCCC2)s1)NC1CCCCCC1
→ -11%, -12%[46.1 µM], -5%, -11%, 20%, 9%, 3.8%, -14%
COc1ccc(OC)c(C2=NOC(C(=O)Nc3cccc(C(C)=O)c3)C2)c1 (stereo not drawn)
→ 2%, -7%, -5%, 2%, -3%, 20%, -3.0%, 1%
O=C(NCc1ccc2c(c1)CCN2C(=O)c1ccncc1)c1ccccc1F
→ ·, ·, ·, -4%, 0%, ·, -0.1%, -13%[46.1 µM]
Cc1cccc(NC(=O)N2CCC3(CC2)Oc2ccccc2C(=O)N3Cc2ccccc2F)c1C
→ ·, -9%[46.1 µM], ·, 13%, -8%, ·, -1.6%, ·
Cc1nnc(NC(=O)c2ccc(-c3ccc(Cl)cc3)o2)s1
→ 0%, -7%, ·, ·, 6%, -29%, ·, ?
Cc1cc(C)n(-c2nc(SCCN(C)C)c3c4c(sc3n2)CCCC4)n1
→ -11%, ?, -209%, -1%, 7%, 10%, -4.2%, ?
O=C(Nc1ccc(Br)c2cccnc12)c1cccc2ccccc12
→ ·, -2%[46.1 µM], ·, 6%, -4%, ·, -0.6%, -6%[46.1 µM]
COC(=O)c1ccc(N2CCN(S(=O)(=O)c3ccccc3)CC2)c([N+](=O)[O-])c1
→ -3%, -26%, 6%, 3%, -18%, -2%, -5.0%, -12%
Cc1cc(C)c(NC(=O)CSc2nc3nccnc3c(=O)n2CCc2c[nH]c3ccccc23)c(C)c1
→ ·, ·, ·, 9%, -21%, ·, -2.5%, 22%[46.1 µM]
COc1ccc(OC)c(NC(=O)CN(C)CCOc2ccc(Br)cc2)c1
→ -6%, -22%, -23%, ·, -14%, 8%, ·, ?
COc1ccc(C(CNS(=O)(=O)c2ccc(NC(C)=O)c(OC)c2)N2CCCCC2)cc1 (stereo not drawn)
→ -3%, -4%, ·, ·, 43%[activator], -5%, ·, ?
Cc1ccc(NC(=O)CSc2nc(=O)n(CCCN(C)C)c3c2CCC3)c(C)c1
→ -3%, -1%, ·, ·, -11%, 0%, ·, 14%[46.1 µM]
O=C(NCc1ccncc1)c1cccc(S(=O)(=O)Nc2ccc(F)cc2)c1
→ -2%, ?, ·, ·, 0%, 1%, ·, 1%
CCc1cc2c(=O)c(-c3ccc4c(c3)OCCO4)coc2c(CN2CCCCC2C)c1O (stereo not drawn)
→ 2%, ?, 6%, ·, -19%, 16%, ·, ?

Overlap with the part before: 5 compounds, then new ones.
Order of values: SARS PLP yeast, MARV entry inh, NS1 function inh, Cruzain noTriton, 2A StopGo, RE007 growth inh, Cruzain inh Det, Lassa entry inh
COc1ccc(OC)c(NC(=O)CN(C)CCOc2ccc(Br)cc2)c1
→ -6%, -22%, -23%, ·, -14%, 8%, ·, ?
COc1ccc(C(CNS(=O)(=O)c2ccc(NC(C)=O)c(OC)c2)N2CCCCC2)cc1 (stereo not drawn)
→ -3%, -4%, ·, ·, 43%[activator], -5%, ·, ?
Cc1ccc(NC(=O)CSc2nc(=O)n(CCCN(C)C)c3c2CCC3)c(C)c1
→ -3%, -1%, ·, ·, -11%, 0%, ·, 14%[46.1 µM]
O=C(NCc1ccncc1)c1cccc(S(=O)(=O)Nc2ccc(F)cc2)c1
→ -2%, ?, ·, ·, 0%, 1%, ·, 1%
CCc1cc2c(=O)c(-c3ccc4c(c3)OCCO4)coc2c(CN2CCCCC2C)c1O (stereo not drawn)
→ 2%, ?, 6%, ·, -19%, 16%, ·, ?
COc1cc(OC)c(NC(=O)CCc2nc(C3=CCN(Cc4cccc(Cl)c4)CC3)no2)cc1Cl
→ ·, ·, ·, -25%, -7%, ·, -2.9%, -22%[46.1 µM]
Cc1n[nH]c(=O)c2c(NC(=O)COC(=O)c3cccc(OC(F)F)c3)oc(C)c12
→ 7%, -1%, ·, ·, -21%, -13%, ·, -13%[46.1 µM]
O=C(CCCNC(=O)c1ccc(Cl)cc1)Nc1ccccc1F
→ 6%, 12%[46.1 µM], 2%, ·, 13%, 0%, ·, -9%[46.1 µM]
Cc1c(C(=O)c2cccc([N+](=O)[O-])c2)c2ccccn2c1CCC#N
→ -8%, 0%, -10%, -7%, -12%, 1%, -6.6%, 2%
CC1(C(=O)Nc2c(F)c(F)c(F)c(F)c2F)CC1(Br)Br (stereo not drawn)
→ 0%, ·, 0%, ·, -19%, -10%, ·, ·
COc1ccc(C(O)(CCN2CCCCC2)C2CCCCC2)cc1 (stereo not drawn)
→ 1%, ?, 0%, ·, -13%, -32%, ·, ?
COC(=O)NNC(=O)c1ccc(C)c(Br)c1
→ -29%, 9%, -6%, -2%, -10%, 3%, -2.7%, ?
Cc1cc2oc(=O)cc(-c3ccccc3)c2c(C)c1-c1ccc(C#N)cc1
→ 24%, ·, ·, -15%, ?, -13%, 1.3%, ·
O=C(COC(=O)CCCN1C(=O)c2cccc3cccc(c23)C1=O)NC1CCS(=O)(=O)C1 (stereo not drawn)
→ 0%, 1%, ·, ·, 6%, -1%, ·, 6%
COCCN(C(=O)COC(=O)Cc1cccc2ccccc12)c1c(N)n(Cc2ccccc2)c(=O)[nH]c1=O
→ -4%, 8%, -4%, ·, -14%, -3%, ·, -26%
O=C(CCl)Nc1cc(-c2ccccc2)nn1-c1ccccc1
→ 23%, 5.2µM*, -108%, -5%, -67%, -9%, 0.2%, ?
CCN(CC)S(=O)(=O)c1cc(C(=O)Nc2cc(S(=O)(=O)N3CCOCC3)ccc2N2CCCC2)ccc1F
→ -2%, -15%, ·, ·, -6%, -7%, ·, ?
CC1=C(C(=O)Nc2cccc(C(=O)NCc3ccccc3C)c2)SCCO1
→ 2%, ·, -8%, ·, -2%, -13%, ·, ·
CCOC(=O)N1CCN(S(=O)(=O)c2ccc(Br)s2)CC1
→ -11%, 0%, -32%, -3%, ?, -2%, 0.2%, 0%
CCOC(=O)C1CCN(C(=O)CSc2cc(=O)n(C)c3ccccc23)CC1
→ -6%, -6%, -16%, -11%, 4%, -1%, -0.4%, 2%
COc1ccc2c(c1)CCc1c(C(=O)N3CC4(C)CC3CC(C)(C)C4)noc1-2 (stereo not drawn)
→ -31%, ?, -58%, 7%, 28%, -7%, -5.4%, ?
C/C(=N\NC(=O)c1ccc([N+](=O)[O-])cc1)c1cc2ccccc2oc1=O
→ 12%, -6%, 1%, -28%, 0%, -21%, -3.7%, 14%
COC(=O)c1ccccc1NC(=O)Cn1c(=O)n(Cc2ccc(C(=O)NCc3ccc4c(c3)OCO4)cc2)c(=O)c2ccccc21
→ ·, 26%[46.1 µM], ·, 10%, -25%, ·, -2.3%, ?
CC(=O)N1CCOc2ccc(S(=O)(=O)Nc3ncccc3C)cc21
→ 3%, ·, 1%, ·, 21%, 4%, ·, ·
Cn1c(SCc2ccccc2C#N)nnc1-c1ccncc1
→ 16%, 16%[46.1 µM], ?, ·, 4%, 5%, ·, 0%[46.1 µM]
